# SARS PLpro yeast – qHTS of Yeast-based Assay for SARS-CoV PLP; S. cerevisiae expressing SARS-CoV PLpro, growth rescue; control for the full effect not named in the record; Potency, µM (doses to about 32.9 µM), for inactives: at the highest dose activity, positive = growth rescue; 330,000 tested, 0.19% active; AID 485353, 2010; further: 0% is about no effect; nearly all actives have a fitted effect of over 55% in size; growth read by luminescence after 48 h
# Cruzain inh Det – qHTS Assay for Promiscuous and Specific Inhibitors of Cruzain (with detergent) | AID 1478, 2009 | 200,000 tested, 0.43% active | Potency, µM, inactives show max response, negative = inhibition, usual class: inhibitors | purified cruzain, Z-FR-AMC fluorescence, 0.01% Triton | Cruzipain (Trypanosoma cruzi), P25779; active means well fitted curve in the direction sought with a large enough effect; inconclusive means small, poorly fitted or top-dose-only effect, or another doubt; inactive means no such curve, though single readings can be large; an effect the other way counts as inactive or inconclusive;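 further: plate controls were neutral wells for no effect and buffer without enzyme for full effect; nearly all actives have a fitted effect of over 40% in size; top concentration of the series not given in the record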
# Target sequence (P25779 123-467 limits assumed): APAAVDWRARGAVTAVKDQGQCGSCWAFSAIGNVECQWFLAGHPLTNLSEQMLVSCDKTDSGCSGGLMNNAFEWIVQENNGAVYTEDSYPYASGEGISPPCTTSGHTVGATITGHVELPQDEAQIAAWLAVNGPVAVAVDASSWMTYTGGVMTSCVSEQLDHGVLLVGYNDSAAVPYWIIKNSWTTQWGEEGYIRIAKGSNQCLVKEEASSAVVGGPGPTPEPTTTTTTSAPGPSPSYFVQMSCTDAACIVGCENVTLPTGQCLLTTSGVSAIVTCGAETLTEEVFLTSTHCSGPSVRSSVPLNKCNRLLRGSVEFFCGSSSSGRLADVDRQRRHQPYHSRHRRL
#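 Z-FR-AMC hydrolysis (2 uM substrate) by cruzain (1.5 nM) monitored kinetically at ex 360/em 450 nm after 15 min room-temperature compound exposure; 0.01% Triton X-100, pH 5.5, 5 mM DTT.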
# LASV entry inh – qHTS for Inhibitors of binding or entry into cells for Lassa Virus; Lassa virus pseudotype entry inhibition, cell reporter; control for the full effect not named in the record; Potency, µM (doses to about 37.9 µM), for the others: at the highest dose activity change, negative = inhibition, hits mostly inhibitors; 300,000 tested, 1.2% active; active means well fitted inhibition curve with a large enough effect; inconclusive means small, poorly fitted or top-dose-only effect, or effect the other way; inactive means flat fitted curve, though single readings scatter; tested in HEK293 cells; further: on the % scale 0 is the no-effect control and ±100 the full control effect; nearly all actives have a fitted effect of over 50% in size; luciferase read-out
# StopGo reporter – High Throughput Screening for Foot and Mouth Disease Virus Antivirals; human cells with a luciferase reporter of 2A StopGo recoding; control for the full effect not named in the record; Potency, µM (top dose mostly 57.9 µM), without a hit: at the top dose signal change, negative = less light; 410,000 tested, 1.2% active; active = well fitted falling curve with a large enough effect; inconclusive = small, poorly fitted or top-dose-only effect; inactive = no such curve, though single readings can be large or run the other way; tested in HEK293T cells; further: on the % scale 0 is the no-effect control and ±100 the full control effect; nearly all actives have a fitted effect of over 45% in size; luciferase light after 4 h
# MARV entry inh – qHTS for inhibitors of binding or entry into cells for Marburg Virus; 300,000 tested, 1.8% active; Potency, µM (series often up to 37.8 µM), for the others: top-dose activity change, negative = inhibition, most hits filed as inhibitors; AID 540276, 2011; Marburg virus pseudotyped entry inhibition, cell reporter; control for the full effect not named in the record; about a third of the inactives were read at about 46 µM; active = well fitted inhibition curve with a large enough effect; inconclusive = small, poorly fitted or top-dose-only effect, or effect the other way; inactive = flat fitted curve, though single readings scatter; tested in HEK293 cells; about a fifth of its hits are not listed in these tables; further: on the % scale 0 is the no-effect control and ±100 the full control effect; luciferase read-out
# Cruzain noTriton – qHTS Assay for Promiscuous and Specific Inhibitors of Cruzain (without detergent) | Potency, µM, without a hit: max response, negative = inhibition, usual class: inhibitors | Cruzipain (Trypanosoma cruzi), P25779 | 200,000 tested, 2.3% active | purified cruzain, Z-FR-AMC fluorescence, no detergent; active means well fitted curve in the direction sought with a large enough effect; inconclusive means small, poorly fitted or top-dose-only effect, or another doubt; inactive means no such curve, though single readings can be large; an effect the other way counts as inactive or inconclusive;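 further: plate controls were enzyme without inhibitor for no effect and buffer without enzyme for full effect; nearly all actives have a fitted effect of over 40% in size; top concentration of the series not given in the record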
#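 Detergent-free condition (0.00005% Triton X-100) in acetate buffer pH 5.5 with DTT. 1.5 nM enzyme and compound were pre-mixed 15 min, then 2 uM Z-FR-AMC substrate added; reaction progress from fluorescence change between first and third reads (60 s).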
# RE007 growth inh – qHTS Assay for Inhibitors of the HIV-1 protein Vpr | S. pombe RE007 Vpr strain, BacTiter-Glo ATP luminescence, 24 h; control for the full effect not named in the record | Potency, µM (highest dose often 92.2 µM), without a hit: at the highest dose activity change, negative = less growth | 360,000 tested, 0.21% active | AID 651644, 2012; active = well fitted falling curve with a large enough effect; inconclusive = small, poorly fitted or top-dose-only effect; inactive = no such curve, though single readings can be large or run the other way;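 further: on the % scale 0 is the no-effect control and ±100 the full control effect; nearly all actives have a fitted effect of over 50% in size; the assay follows cell death caused by Vpr and the record does not say whether a fall means rescue or toxicity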
#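 Fission yeast RE007 carrying one integrated HIV-1 vpr copy, seeded at OD 0.01 in PMG+AL medium with 23 nL pinned compound. Grown 24 h at 30 degrees; viability read by BacTiter-Glo luminescence after 5 min.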
# NS1 inh – qHTS Assay for Inhibitors of Influenza NS1 Protein Function. Potency, µM (top dose mostly 46.1 µM), for inactives: at the highest dose activity, positive = more growth. S. cerevisiae slowed by influenza A NS1, growth recovery by OD600. 270,000 tested, 0.4% active. AID 2326, 2010; further: actives are rising curves; nearly all actives have a fitted effect of over 50% in size
#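 OD600 was taken as the measure of yeast growth restored by compound in an NS1-expressing S. cerevisiae strain. Cells had been washed out of glucose medium and diluted 1:100 into galactose -URA medium, pH 6.0.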
# Active calls of the source: *; ? = inconclusive; · = no result given; & = joins results of further samples; [ ] = remark or other dose. Unless noted, the call rests on the fitted dose curve; in most records, active means well fitted rising curve with a large enough effect; inconclusive means small, poorly fitted or top-dose-only effect; inactive means no such curve, though single readings can be large or run the other way. Potency means the concentration at half of the fitted maximal effect.
SMILES,SARS PLpro yeast,Cruzain inh Det,LASV entry inh,StopGo reporter,MARV entry inh,Cruzain noTriton,RE007 growth inh,NS1 inh
Cc1ncc([N+](=O)[O-])n1CC(=O)NC1CCCCCC1,0%,·,18%,-20%,3%[46.1 µM],·,-10%,4%
COc1cccc(C(=S)N2CCOCC2)c1OS(=O)(=O)c1ccc(Cl)cc1,0%,·,9%[46.1 µM],25%,-13%[46.1 µM],·,4%,-7%
O=C(/C=C/c1ccc[nH]1)c1ccccc1,-6%,·,-25%,42%[activator],8%[46.1 µM],·,?,·
COc1ccccc1CNC(=O)CSc1nc(-c2ccccc2)cn1N,1%,5.9%,4%,-5%,-5%,-2%,-9%,5%
COc1ccccc1-c1noc(-c2cc(OC)c(OC)c(OC)c2)n1,-21%,-9.1%,?,0%,-22%,?,-17%,-35%
CCCCN1C(=O)N(C)C2NC(=S)NC21 (stereo not drawn),-1%,·,·,-11%,·,·,6%,-3%
COc1cc(-c2nnc(NC(=O)CS(=O)(=O)c3ccc(C)cc3)o2)cc(OC)c1OC,2%,·,1%,6%,-2%,·,30%,·
CCOC(=O)C1=C(C)Nc2nc3ccccc3n2C1c1ccccc1 (stereo not drawn),9%,2.2%,14%,-9%,6%,-8%,-10%,-3%
CCC(Oc1ccccc1)C(=O)NCCOC (stereo not drawn),-5%,-3.3%,14%,-18%,?,1%,2%,-5%
CN1CCC(N(C)S(=O)(=O)c2ccc(NC(=O)COc3cccc(C(F)(F)F)c3)cc2)CC1,1%,·,5%,0%,?,·,2%,·
O=C(CSc1nnc(NC(=O)C2CC2)s1)NCc1ccccc1Cl,?,·,8%[46.1 µM],9%,-1%[46.1 µM],·,0%,-5%
Cc1ccc(CNC(=O)C2CC(c3ccc(C(F)(F)F)cc3)=NO2)o1 (stereo not drawn),-2%,·,·,-10%,·,·,-10%,-5%
c1ccc(-c2cn(CC3CCCCC3)nn2)cc1,-10%,·,·,49%[activator],·,·,-19%,-37%
Cc1ccc(C2CC(c3ccccc3OC(F)F)Nc3ncnn32)cc1 (stereo not drawn),0%,2.5%,-12%,-13%,29%,-7%,2%,4%
CCC(Oc1ccccc1)C(=O)N(Cc1ccccc1)c1ccccn1 (stereo not drawn),-9%,-3.2%,?,-10%,4%,-2%,-4%,1%
Cc1nc(CC(=O)O)c(-c2ccccc2)s1,1%,8.2%,-11%,7%,-10%,0%,16%,2%
CC(=O)N1CCc2cc(NC(=O)c3ccc(C)cc3)ccc21,-3%,3.8%,16µM*,0%,?,-10%,0%,-10%
Cc1cc(C(=O)N/N=C/c2cccs2)no1,-19%,-6.7%,0%,40%[activator],11%,-8%,4%,-1%
CCCN(C(=O)c1c(C)oc2ncnc(N3CCOCC3)c12)c1ccc(Cl)c(Cl)c1,·,-1.7%,-5%[46.1 µM],-10%,-1%[46.1 µM],12%,·,·
COC(=O)c1ccc(CSc2ccc(S(=O)(=O)N3CCCCC3)cn2)cc1,2%,·,27%,-23%,?,·,-22%,·
Cc1ccc(C2CC(=O)N(Cc3ccc(F)cc3)c3c2c(C)nn3-c2nc(C)cc(C)n2)cc1 (stereo not drawn),·,-5.5%,3%[46.1 µM],-12%,-2%[46.1 µM],?,·,·
Cc1nc(SCC(=O)c2ccccc2)n[nH]1,7%,-4.0%,-2%,49%[activator],1%,-5%,-7%,-53%
O=c1[nH]c(C2CCCN(S(=O)(=O)c3ccccc3)C2)nc2c1nnn2Cc1ccccc1Br (stereo not drawn),?,-6.9%,?,-16%&-10%,?,4%,-9%,7.1µM*
Cc1cccc(/C=C2\CS/C(=C\c3cccc(C)c3)C2=O)c1,-11%,-1.6%,22%,27%,10%,25µM*,1%,10%
Cc1cccc(NCc2ccc(O)c3ncccc23)c1C,4%,·,?,-18%,?,·,5%,5%
O=C(N/N=C\c1cn(-c2ccccc2)nc1-c1ccccc1)c1ccc2c(c1)OCO2,0%,0.3%,-16%,-10%,?,20µM*,-8%,3%
Cn1c(=O)c2c(nc(N3CCN(c4ccccn4)CC3)n2Cc2ccc(Cl)cc2Cl)n(C)c1=O,8%,4.1%,8%,-20%,2%,2%,24%,14%
Cc1n[nH]c(C)c1CCc1nc2c3ccccc3nc(SCC(N)=O)n2n1,0%,6.0%,-12%,-9%,0%,9%,23%,3.2µM*
CC(=O)N(C1=C(Cl)C(=O)c2ccccc2C1=O)c1ccc(C(=O)O)cc1,0%,·,?,?,?,·,-25%,2%
O=C(Cn1cc(C(=O)C2CCCCC2)c2ccccc21)NCC1CCCO1 (stereo not drawn),-2%,·,12%,-11%,?,·,-1%,2%
CCN(CC(=O)Nc1ccc2c(c1)OCCO2)S(=O)(=O)c1ccc(F)cc1,3%,·,15%[46.1 µM],6%,1%[46.1 µM],·,2%,2%
CCOCCCNCc1cc(Br)ccc1OCc1ccccc1,-30%,-2.9%,-25%,-2%,?,-16%,18%,-10%
Cc1ccc(NC(=S)N(Cc2cccs2)Cc2cc3cccc(C)c3[nH]c2=O)cc1,-6%,-3.3%,?,-13%,-5%,16µM*,7%,12%
NC(=S)N/N=C/c1ccccc1OCc1cccc(Cl)c1,16µM*,-24%,-27%,?,?,?,2%,6%
CC1CC(=O)C2=C(C1)Nc1ncnn1C2c1ccccc1 (stereo not drawn),14%,-4.1%,7%,23%,18%,0%,20%,-8%
Cc1cc(C(=O)Nc2c(F)cc(F)cc2Br)c(C)o1,0%,1.5%,9%,-1%,3%,-2%,-4%,-8%
O=C(c1cccc(F)c1)N1CCN(c2ccc([N+](=O)[O-])c3cccnc23)CC1,-1%,·,?,?,-22%,·,-16%,-4%
O=C(Nc1ccc(NC(=O)c2cccnc2Cl)cc1)c1cccc(Cl)c1,-1%,·,·,45%[activator],4%[46.1 µM],·,7%,-13%
CS(=O)(=O)Nc1ccccc1C(=O)NCc1ccccc1Cl,-1%,·,3%,-11%,0%,·,1%,-1%
CC1CCCN(S(=O)(=O)c2cc3c4c(c2)CC(=O)N4CCC3)C1 (stereo not drawn),·,-2.7%,-5%[46.1 µM],-17%,·,-3%,·,·
O=C(c1cc(COc2c(F)cccc2F)on1)N1CCN(C2CCCCC2)C(=O)C1,-5%,·,18%[46.1 µM],-5%,0%[46.1 µM],·,-23%,-14%
Cc1ccc(S(=O)(=O)N(C)CCCC(=O)Nc2ccncc2)cc1,-3%,4.6%,·,?,·,6%,-1%,3%
CCOC(=O)c1[nH]c(C)c(C(=O)NC(CC)Cc2ccccc2)c1C (stereo not drawn),·,-4.7%,-4%[46.1 µM],-12%,-25%[46.1 µM],-4%,·,·
CN(CC(=O)NCc1cccs1)CC(=O)Nc1ccc(F)c(F)c1F,-2%,·,12%,-14%,19%,·,-19%,11%
Cc1c2cnn(CC(=O)NCCCN3CCCCC3C)c(=O)c2c(C)n1Cc1ccccc1 (stereo not drawn),-1%,·,·,-22%,·,·,1%,12%
O=C1C(=O)c2c(ccc3ccccc23)-c2ccccc21,·,·,?,?,?,·,?,·
O=C(N/N=C/c1cccs1)c1ccc(-n2cccc2)cc1,-2%,·,13%[46.1 µM],26%,8%[46.1 µM],·,1%,-8%
CCc1noc(C)c1C(=O)Nc1nc(-c2cccs2)cs1,0%,·,-3%,-14%,13%[46.1 µM],·,-29%,·
NS(=O)(=O)c1cccc(NC(=S)NC(=O)c2cccc([N+](=O)[O-])c2)c1,1%,·,7%,25%,26%[46.1 µM],·,10%,8%
CC(C)c1ccc(NC(c2nnc(-c3ccccc3)o2)c2ccc(F)cc2Cl)cc1 (stereo not drawn),·,-0.4%,18%[46.1 µM],-26%,·,-2%,·,·
O=S1(=O)N=C(N/N=C/c2ccco2)c2ccccc21,2%,·,3%,56%[activator],-1%[46.1 µM],·,9%,·
Cc1ccc(OCC(=O)Nc2c(C(=O)c3ccc(Cl)cc3)oc3ccccc23)cc1C,·,0.6%,4%[46.1 µM],-2%,4%[46.1 µM],1%,·,·
Cc1ccc(NC(=O)c2cnn3c2NC(c2ccccc2)=CC3c2ccccc2)cc1 (stereo not drawn),·,-2.7%,-15%[46.1 µM],-18%,·,?,·,·
CC(C)Cn1c(N)c(C(=O)COC(=O)c2ccc(F)cc2)c(=O)n(C)c1=O,1%,·,-27%[46.1 µM],?,?,·,6%,·
O=C(O)c1cn(-c2ccc(F)c(F)c2)c2c(F)c(F)c(F)c(F)c2c1=O,-11%,-1.7%,-12%,?,-14%,-8%,?,-28%
CNC(=O)CSc1nc2ccccc2c(=O)n1-c1cc(OC)ccc1OC,2%,·,·,-6%,·,·,6%,0%
O=C(Nc1cccc(OCc2cc(=O)n3c4c(sc3n2)CCCC4)c1)c1ccc(F)cc1,·,-1.2%,3%[46.1 µM],-19%,-2%[46.1 µM],10%,·,·
COc1cc(OC)c(OC)cc1/C=N/NC(=O)c1ccc(=O)n(C)c1,-11%,-8.1%,-1%,-11%,17%,-21%,2%,1%
COc1cccc(-c2nc(-c3ccc(Br)o3)no2)c1,2%,0.0%,?,-23%&-7%,?,-4%,-10%,-5%
COc1ccc(-c2nc(CN3CCN(Cc4cccc(Cl)c4)CC3)c(C)o2)cc1,6%,·,·,0%,·,·,-7%,12%
COc1ccc(Cl)cc1NC(=O)CSc1nc2c(oc3ccccc32)c(=O)n1Cc1ccco1,·,-0.9%,·,2%,-3%[46.1 µM],-3%,·,·
COC(=O)C1=C(C)NC(=O)CC1c1ccc(C(=O)OC)cc1 (stereo not drawn),-9%,3.0%,5%,7%,-7%,-8%,-15%,6%
